TRPV1 potentiator: potentiators of human vanilloid receptor 1 (TRPV1) | TRPV1-expressing cells, Fluo-8 calcium influx, capsaicin EC20 potentiation; host cell line not named in the record; control for the full effect not named in the record | Q8NER1 | hit rate 0.02% among 320,000 | AID 540277 | potentiation, % at 8.33 µM; active means potentiation above 80%; inconclusive means 30% to 80%; inactive means below 30%; note: 0% is about no effect
Target sequence (Q8NER1 whole entry, looked up): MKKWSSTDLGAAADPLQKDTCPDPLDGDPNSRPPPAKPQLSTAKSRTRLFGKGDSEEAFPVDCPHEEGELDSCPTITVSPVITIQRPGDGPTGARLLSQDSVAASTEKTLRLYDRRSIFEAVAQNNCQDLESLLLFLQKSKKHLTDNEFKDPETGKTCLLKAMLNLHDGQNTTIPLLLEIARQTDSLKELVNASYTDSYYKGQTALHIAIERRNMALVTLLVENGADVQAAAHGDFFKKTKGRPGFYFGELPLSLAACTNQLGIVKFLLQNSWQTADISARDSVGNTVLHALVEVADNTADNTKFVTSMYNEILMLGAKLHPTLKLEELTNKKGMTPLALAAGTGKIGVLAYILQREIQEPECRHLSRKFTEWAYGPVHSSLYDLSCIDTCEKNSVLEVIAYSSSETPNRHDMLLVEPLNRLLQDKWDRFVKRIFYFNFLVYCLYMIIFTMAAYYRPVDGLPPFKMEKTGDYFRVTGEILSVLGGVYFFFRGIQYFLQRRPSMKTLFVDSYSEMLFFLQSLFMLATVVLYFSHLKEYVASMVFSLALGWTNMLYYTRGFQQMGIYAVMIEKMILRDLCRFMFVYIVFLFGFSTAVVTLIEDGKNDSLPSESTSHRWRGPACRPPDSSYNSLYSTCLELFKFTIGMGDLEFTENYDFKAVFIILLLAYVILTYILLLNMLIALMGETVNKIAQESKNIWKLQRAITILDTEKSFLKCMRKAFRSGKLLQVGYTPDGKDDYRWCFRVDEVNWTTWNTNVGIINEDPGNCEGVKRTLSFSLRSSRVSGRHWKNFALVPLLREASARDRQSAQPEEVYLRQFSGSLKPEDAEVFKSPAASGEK
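TRPV1-expressing cells were cultured overnight at 35.5C and loaded with Fluo-8 calcium dye for 40 to 90 min at room temperature. After a 10 s baseline, compound was added and calcium influx was read kinetically for 3 min (ex 480/em 520 nm).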
TRPML1 blocker: inhibitors of human TRPML1 channel. Q9GZU1. TRPML1-inducible cells, Ca2+ dye fluorescence, FDSS; stronger effect = lower value; inhibition of EC80 agonist-evoked calcium signal. activity change, negative = inhibition, % (test concentration not listed). hit rate 0.02% among 390,000. AID 624415; in the data active means activity change below about -50%; inconclusive means about -30% to -50%; inactive means above about -30%;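 note: stimulus is agonist 54-4 at its EC80 concentration; % is set by controls: 0 for no effect and ±100 for the full control effect; compound concentration not given in the record; the text of the record puts the active cut at -80%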
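Calcium fluorescence in TRPML1-DL cells induced overnight with Tet: a 110 s read after compound pin addition, then a 110 s antagonist read after challenge with 54-4 at 4 uM final (EC80).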
Sfp PPTase inh: Sfp phosphopantetheinyl transferase inhibition | Q9F4F7 | Biochemical Sfp PPTase activity, qHTS | Potency, µM, for the others: max response, negative = inhibition, most hits filed as inhibitors | hit rate 3.5% among 310,000 | AID 1490; active = well fitted inhibition curve with a large enough effect; inconclusive = small, poorly fitted or top-dose-only effect, or another doubt; inactive = no such curve, though single readings can be large or run the other way;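 note: the enzyme is Sfp with the accession as filed and its product quenches rhodamine fluorescence; potency is the fitted concentration of half-maximal effect; 0% = enzyme reaction without inhibitor and -100% = no enzyme wells; top concentration of the series not given in the record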
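Fluorescence-quenching assay: 15 nM Sfp-PPTase preincubated 15 min at room temperature with compound, then 5 uM rhodamine-CoA and 12.5 uM BHQ-2-labelled YbbR peptide added. Fluorescence (ex 525/em 598 nm) read at start and after 30 min; difference gives rate.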
gsp ag: gsp mutant agonism | gsp mutant cells, cAMP HTRF, 30 min; control for the full effect not named in the record | Potency, µM (titrated, usually from 76.9 µM), without a hit: at the top dose activation (cAMP increase), hits mostly activators | hit rate 0.13% among 340,000 | AID 624287; active = well fitted activation curve with a large enough effect; inconclusive = small, poorly fitted or top-dose-only effect, or another doubt; inactive = no such curve, though single readings can be large or run the other way; cell line not stated here;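 note: phosphodiesterase inhibitor Ro 20-1724 added with compounds to block cAMP breakdown; potency is the fitted concentration of half-maximal effect; nearly all actives have a fitted effect of over 60% in size; about a fifth of the inactives were tested at one dose only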
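Cells in DMEM/10% FBS with G418 were pretreated with compounds in DMSO plus […] (300 uM stock) for 30 min at 37C. cAMP was measured by HTRF (cAMP-d2 plus anti-cAMP antibody-K) after 30 min at room temperature.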
ClpP mod: qHTS Assay for Activators of ClpP; ATP-dependent Clp protease proteolytic subunit (Bacillus subtilis (strain 168)), P80244; purified B. subtilis ClpP, FRET peptide cleavage, 20 min; Potency, µM (doses to about 57.5 µM), inactives show at the top dose activity change, negative = active; hit rate 1.9% among 340,000; active = well fitted falling curve with a large enough effect; inconclusive = small, poorly fitted or top-dose-only effect; inactive = no such curve, though single readings can be large or run the other way; note: potency is the fitted concentration of half-maximal effect; the source files actives as falling curves though it sought activators and does not explain the sign; nearly all actives have a fitted effect of over 65% in size; many hits overshoot -100%
Target sequence (P80244 whole entry, looked up): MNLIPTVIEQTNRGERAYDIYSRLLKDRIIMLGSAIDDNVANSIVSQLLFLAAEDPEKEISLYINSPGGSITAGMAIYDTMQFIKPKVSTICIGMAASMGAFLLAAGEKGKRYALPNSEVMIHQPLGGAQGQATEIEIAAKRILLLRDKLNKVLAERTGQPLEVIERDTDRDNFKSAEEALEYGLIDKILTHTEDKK
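ClpP 10 microg/mL final, pH 8 Tris/KCl buffer with BSA, glycerol, Tween-20; compound pinned in; FRET-FV substrate; RT 20 min; Ex320/Em430; ΔFRET vs ADEP 5.8 microM, DMSO, no enzyme.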
gsp antagonist: antagonists of gsp mutant (McCune-Albright syndrome) | gsp-mutant cells, cAMP HTRF, 30 min; control for the full effect not named in the record | Potency, µM (top dose mostly 76.9 µM), without a hit: top-dose activity change, negative = inhibition, usual class: inhibitors | hit rate 0.4% among 340,000 | AID 624288; active = falling curve of any shape with a large fitted effect; inconclusive = falling curve, mostly with a smaller effect; inactive = flat or rising curve; cell line not stated here;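 note: intracellular cAMP measured with PDE inhibitor Ro 20-1724 present during compound exposure; potency is the fitted concentration of half-maximal effect; % is set by controls: 0 for no effect and ±100 for the full control effect; nearly all actives have a fitted effect of over 65% in size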
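Cells, 2000/well, grown 16–24 h in DMEM 10% FBS with 0.5 mg/ml G418, then compounds plus […] (300 uM addition stock), 30 min at 37C. cAMP read by HTRF (cAMP-d2 and anti-cAMP antibody-K in lysis buffer) after 30 min RT.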
Menin-MLL FL inh: menin-MLL binding inhibition, fluorescein peptide; Fluorescence polarization, fluorescein-MLL peptide displacement from menin; FP activity change, % at 61.4 µM; 290,000 tested, under 10 active; inconclusive = falling polarisation curve, or a change in total fluorescence; inactive = total fluorescence flat and polarisation flat or rising; no compound was filed as active; the % refers to the polarisation; negative = inhibition;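 note: % of control where 0% means no effect; inhibitors lower the polarisation; unlabelled MLL peptide was the positive control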
The depositor's hits bear a star; u = inconclusive; x = no result given; [ ] = dose if it differs, or a comment.

structure	TRPV1 potentiator	TRPML1 blocker	Sfp PPTase inh	gsp ag	ClpP mod	gsp antagonist	Menin-MLL FL inh
O=C1CC(c2ccccc2)C(c2ccccc2)=NN1 (configuration not stated)	x	11	x	-12%	x	-1%	x
O=C(NCc1ccc(F)cc1)C1CCCN(c2nc3ccsc3c(=O)s2)C1 (configuration not stated)	-20	1	9%	-24%	-2.5%	-9%	0.5
CCCN(C(=O)CCc1ccc(OC)cc1)c1c(N)n(Cc2ccccc2)c(=O)[nH]c1=O	x	-3	x	1%	-1.5%	9%	x
CCN(CC)C(=O)Oc1ccc2ccccc2c1Br	-9	32	-2%	33%[15.4 µM]	x	-14%	-5.0
CSc1nc2cc(F)c(F)cc2n1C	8	0	11%	11%	0.8%	3%	1.7
CCOC(=O)c1oc2nc(C(C)C)c3c(c2c1N)CC(C)(C)OC3	-13	-14	16%	u	u	10%	-3.4
CC(C)(C)NC(=O)Cn1c(SCC(=O)Nc2nccs2)nc2ccccc21	4	-21	13%	-25%	-0.2%	8%	4.4
N#Cc1c(N)oc(-c2ccc3c(c2)OCO3)c1-c1ccc2c(c1)OCO2	6	-11	4%	-26%	14µM*	6%	u
CCC(C)(C)c1ccc(OCC(=O)N(C)C)c(C(C)(C)CC)c1	4	-13	24%	-12%[15.4 µM]	x	-8%	0.5
Cn1c(SCc2ccccc2)nnc1-c1cnccn1	8	5	-10%	-5%	0.8%	10%	7.6
Cc1c(OCC(=O)NCCN2CCOCC2)ccc2c(-c3ccccc3)cc(=O)oc12	0	6	11%	3%	x	-2%	-3.0
COc1ccc(CCNC(=O)COC(=O)C2CC2C)cc1OC (configuration not stated)	2	-3	x	22%	-0.3%	12%	x
CCOC(=O)c1c(NC(=O)COC(=O)c2ccccn2)sc2c1CCC2	11	28	-6%	-16%	9.5%	3%	-1.4
C=CCn1c(=O)c2ccccc2n2c(SCC(=O)Nc3sc(C)c(CC)c3C(=O)OCC)nnc12	3	3	u	-6%[15.4 µM]	x	u	1.8
C[N+](C)(C)C/C=C1/COCO1	-14	-1	-8%	-26%	-2.6%	6%	-2.9
CC(=O)OC1CSC2c3ccccc3C(=O)N2Cc2sccc21 (configuration not stated)	-8	-21	-2%	17%	-2.2%	-11%	-2.0
CN(C)CCCNS(=O)(=O)c1ccc(N2CCN(Cc3ccc4c(c3)OCO4)CC2)c([N+](=O)[O-])c1	5	27	71µM*	-5%	x	1%	4.0
c1ccc(C2NCCn3cccc32)cc1 (configuration not stated)	-10	-9	-14%	-8%	-1.1%	-4%	6.2
NC(=O)c1ccsc1NC(=O)COC(=O)c1nc(Cl)ccc1Cl	-3	-12	x	5%[15.4 µM]	x	-16%	x
CC(C)(C)NS(=O)(=O)c1ccc(NC(=O)C(Sc2ccccc2)c2ccccc2)cc1 (configuration not stated)	9	26	19%	-3%	3.7%	0%	5.3
COc1cc(C(C2C(=O)CC(C)(C)CC2=O)C2C(=O)CC(C)(C)CC2=O)ccc1O	u	x	56µM*	-30%[inhibitor]	-0.5%	-10%	u
O=C(Nc1nc(-c2ccccn2)cs1)c1cccc(-n2cnnn2)c1	4	29	u	11%	-4.9%	0%	5.0
COC(=O)CCC(=O)NC(=S)Nc1c(C)cccc1C	5	-4	17%	-22%[15.4 µM]	0.4%	9%	2.6
O=C(Nc1ccccc1)C(CCCCN1C(=O)c2ccccc2C1=O)N1C(=O)c2ccccc2C1=O (configuration not stated)	x	40	x	20%	-1.1%	-11%	x
CCCc1nnc(NC(=O)c2ccncc2)s1	-5	10	-8%	u	0.0%	-7%	0.4
CCCNC(=O)COc1ccccc1[N+](=O)[O-]	8	2	19%	4%[15.4 µM]	-0.1%	21%	3.0
O=C(NCc1ccc(F)cc1)C1CCN(S(=O)(=O)N2CCCC2)CC1	6	-9	13%	-1%	-1.7%	-4%	-1.1
O=C(Nc1ccc2c(c1)OCO2)C1(S(=O)(=O)c2ccc(Cl)cc2)CC1	u	-9	5%	-10%	1.5%	-4%	-2.0
COCCCNC(=O)CN1C(=O)/C(=C/c2ccccc2C)Sc2ccccc21	0	-24	10%	2%	0.1%	-2%	-3.9
O=C(NC(=S)N(CCO)Cc1ccccc1)c1ccc(S(=O)(=O)N2CCCC2)cc1	9	5	10%	-7%[15.4 µM]	x	-9%	-2.6
COc1ccccc1C1C(C(C)=O)=C(O)C(=O)N1c1ccc(O)cc1 (configuration not stated)	-2	0	5%	-27%	x	8%	0.9
COc1c(C)cccc1C(=O)NC(=S)Nc1ccc2c(c1)Cc1ccccc1-2	-1	-2	9%	-36%[inhibitor]	-0.9%	0%	-1.2
O=C(c1ccc(Cn2c(=O)[nH]c3ccccc3c2=O)cc1)N1CCN(c2ccccc2)CC1	2	-11	3%	4%	-13%	1%	0.7
O=C(COC(=O)c1ccc(NS(=O)(=O)c2ccc3c(c2)OCCO3)cc1)NC1CC1	28	-6	19%	0%	-6.9%	-20%	7.0
Oc1ccc(O)c(-c2cnns2)c1	6	-10	u	13%	-0.8%	12%	x
Cc1ccc(C(=O)Nc2cc3c(cc2Cl)OCCCO3)cc1	-22	-13	12%	4%	-1.9%	-12%	-1.8
O=C(OCC(=O)c1ccc(Cl)s1)c1ccccn1	-4	19	-6%	27%	0.7%	14%	8.0
CCc1c(C)sc(NC(=O)c2cc(C)no2)c1C#N	u	-17	u	12%	-1.6%	-8%	3.8
COc1ccc(Cc2ccc(OC)c(N)c2)cc1N	6	6	-3%	-49%[inhibitor]	-1.5%	-6%	0.5
COc1ccc(CCNS(=O)(=O)c2ccc3c(c2)n(C)c(=O)c(=O)n3C)cc1OC	23	9	11%	-17%	-1.5%	9%	2.9
O=C1NNC(c2ccccc2)=N/C1=C\c1ccc(Cl)cc1	9	26	13%	5%[15.4 µM]	x	-11%	3.0
O=S(=O)(c1ccc(F)cc1)N1CCN(CC2CC3C=CC2C3)CC1 (configuration not stated)	3	-18	-27%	1%[15.4 µM]	-10%	14%	-3.4
Cc1cccc(C(=O)N2CCN(c3ccccn3)CC2)c1	7	12	10%	-8%	-22%	0%	0.7
COc1ccccc1Cn1c(=S)[nH]c2cc(C(=O)NCCN3CCOCC3)ccc2c1=O	8	4	11%	-3%	0.5%	0%	3.8
Cc1ccc(C)n1-c1ccsc1C(=O)CC#N	10	-5	8%	7%[15.4 µM]	x	x	5.2
COC(=O)/N=C/c1c(NCc2ccccc2)nc2c(C)cccn2c1=O	-14	17	-18%	-56%[inhibitor]	x	9%	2.3
CCc1ccc(OCCSc2nc3ccccc3n2CCC(=O)O)cc1	6	-16	-23%	2%	-2.8%	-20%	-2.2
CC(NS(=O)(=O)c1ccc(F)cc1)C(c1cccs1)N1CCN(C)CC1 (configuration not stated)	-9	-7	21%	17%	-1.6%	10%	-0.1
Cc1ccc(-n2c(O)c(C=Nc3ccccc3-c3n[nH]c(=S)[nH]c3=O)c3ccccc3c2=O)c(C)c1	-4	9	1%	u	x	-32%	1.5
CC1CCCN(c2ccc(C(=O)NCC3CCCO3)cn2)C1 (configuration not stated)	-17	7	3%	13%	-6.7%	0%	-6.8
O=C(Cn1ccc2ccccc2c1=O)NCCC(=O)Nc1cccnc1	-12	7	5%	19%	-23%	1%	-1.5
O=C(c1ccccc1)N(c1ccccc1)c1nccc2ccccc12	x	4	x	x	1.0%	-22%	x
O=C(CSc1ccc2nnc(-c3ccc(F)cc3)n2n1)NCc1ccco1	14	13	-4%	29%	-16%	-3%	0.5

8 entries from above, with values under each structure.
Values run as follows: TRPV1 potentiator	TRPML1 blocker	Sfp PPTase inh	gsp ag	ClpP mod	gsp antagonist	Menin-MLL FL inh
> Cc1cccc(C(=O)N2CCN(c3ccccn3)CC2)c1
  7	12	10%	-8%	-22%	0%	0.7
> COc1ccccc1Cn1c(=S)[nH]c2cc(C(=O)NCCN3CCOCC3)ccc2c1=O
  8	4	11%	-3%	0.5%	0%	3.8
> Cc1ccc(C)n1-c1ccsc1C(=O)CC#N
  10	-5	8%	7%[15.4 µM]	x	x	5.2
> COC(=O)/N=C/c1c(NCc2ccccc2)nc2c(C)cccn2c1=O
  -14	17	-18%	-56%[inhibitor]	x	9%	2.3
> CCc1ccc(OCCSc2nc3ccccc3n2CCC(=O)O)cc1
  6	-16	-23%	2%	-2.8%	-20%	-2.2
> CC(NS(=O)(=O)c1ccc(F)cc1)C(c1cccs1)N1CCN(C)CC1 (configuration not stated)
  -9	-7	21%	17%	-1.6%	10%	-0.1
> Cc1ccc(-n2c(O)c(C=Nc3ccccc3-c3n[nH]c(=S)[nH]c3=O)c3ccccc3c2=O)c(C)c1
  -4	9	1%	u	x	-32%	1.5
> CC1CCCN(c2ccc(C(=O)NCC3CCCO3)cn2)C1 (configuration not stated)
  -17	7	3%	13%	-6.7%	0%	-6.8
